Rango release inh: inhibitors of RanGTP-induced Rango-importin beta complex dissociation; Potency, µM (doses to about 46.1 µM), for inactives: at the highest dose activity change, negative = inhibition; Biochemical FRET Rango-importin beta, RanGTP-induced dissociation; hit rate 0.071% among 340,000; AID 540253; active means falling FRET ratio curve, often poorly fitted, with flat reads before Ran was added; inconclusive means other falling curves, or compound fluorescence or quenching; inactive means flat or rising ratio curve;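 note: potency is the fitted concentration of half-maximal effect; % of control where 0% means no effect; nearly all actives have a fitted effect of over 45% in size; -100% = wells without RanGTP and RCC1; the record marks most hits as doubtful in a second field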
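Compounds preincubate 5 min with complex of recombinant Rango and importin beta in PBS with 1 mM DTT. Ran (0.6 uM) loaded with 2 mM GTP plus 0.2 uM RCC1 starts dissociation; FRET is recorded 45 min later.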
miR-21 reporter: miR-21 reporter, rising signal; HeLa miR-21 FLuc reporter, luciferase, 48 h; Potency, µM (titrated, usually from 38.3 µM), inactives show top-dose reporter change, positive = more light; 340,000 tested, under 10 active; AID 2288; active = well fitted rising curve with a large enough effect; inconclusive = small, poorly fitted or top-dose-only effect; inactive = no such curve, though single readings can be large or run the other way;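 note: % of control where 0% means no effect; miR-21 action dims this reporter so a rising signal means less miR-21 action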
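Compounds were titrated across several concentrations (up to approximately 40 uM) and incubated 48 hours with HeLa miR-21-FLuc reporter cells (miR-21 target sequence downstream of FLuc, endogenous miR-21). Readout was firefly luciferase luminescence after lytic detection reagent.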
Rango-impB inh: inhibitors of Rango-importin beta complex formation; Q14974; Rango CFP/YFP FRET sensor + importin beta, 45 min; Potency, µM (top dose mostly 92.2 µM), without a hit: at the top dose inhibition of complex formation; hit rate 0.031% among 340,000; AID 540263; active = rising FRET ratio curve, often small or poorly fitted; inconclusive = mostly compound fluorescence or quenching in the first reads; inactive = flat curves in all reads;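 note: potency is the fitted concentration of half-maximal effect; 0% = DMSO wells and 100% = buffer wells lacking importin beta; nearly all actives have a fitted effect of over 15% in size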
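FRET biosensor Rango (snurportin 1 IBB between N-terminal EYFP and C-terminal Cerulean), 50 nM in PBS/1 mM DTT/0.02% Tween-20/0.1% BSA, preincubated 5 min RT with compound; 0.125 microM importin beta added, 45 min RT, CFP/YFP FRET ratio read.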
GLA inh pH 4.5: inhibitors of human alpha-galactosidase A at pH 4.5 | activity change, negative = inhibition, % at 105 µM | purified enzyme, 4-MU-alpha-Gal fluorescence, pH 4.5 | AID 1467 | 230,000 tested, under 10 active; inconclusive = small, poorly fitted or top-dose-only inhibition, or a rising curve; inactive = flat fitted curve, though single readings scatter; no compound was filed as active;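 note: 0% = full activity with enzyme and -100% = basal without enzyme; dose as in the result columns while the protocol names 77 µM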
Target sequence (P06280 whole entry, looked up): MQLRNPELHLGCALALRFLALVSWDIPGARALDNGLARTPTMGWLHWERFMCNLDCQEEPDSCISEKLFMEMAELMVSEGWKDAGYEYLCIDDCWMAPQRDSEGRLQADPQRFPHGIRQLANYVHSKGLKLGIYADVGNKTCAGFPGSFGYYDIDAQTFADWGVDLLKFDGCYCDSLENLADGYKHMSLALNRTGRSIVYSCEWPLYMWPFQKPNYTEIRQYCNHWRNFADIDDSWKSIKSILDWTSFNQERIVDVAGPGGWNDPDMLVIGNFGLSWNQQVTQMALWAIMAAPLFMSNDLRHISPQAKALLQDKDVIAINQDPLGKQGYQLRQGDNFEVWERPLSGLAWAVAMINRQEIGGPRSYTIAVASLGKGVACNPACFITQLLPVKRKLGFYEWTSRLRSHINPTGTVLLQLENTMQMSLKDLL
* = called active by the depositor; u = inconclusive; x = not tested or not shown. The list is partial; rates above refer to the full screens.

1	CC1CCCCC1NC(=O)CN1C(=O)NC(Cc2ccccc2)(Cc2ccccc2)C1=O (stereo not given)
2	CCN(CC)C(=O)CSC1=Nc2ccccc2C2=NC(Cc3c[nH]c4ccccc34)C(=O)N12 (stereo not given)
3	C[C@H](CO)N1C[C@H](C)[C@@H](CN(C)CC2CC2)Oc2c(NC(=O)C3CC3)cccc2C1=O
4	CC(C)NC(=O)c1ccc(CNC(=O)OCC(F)(F)F)cc1
5	CC1CCN(Cc2c(C(=O)N3CCc4ccccc4C3)nc3ccc(Cl)cn23)CC1
6	O=C(CCNC(=O)c1ccc(Cl)cc1)Nc1ccccc1N1CCCC1
7	COc1ccc(OCC(=O)N2CCN(C(=O)COc3ccccc3)CC2)cc1
8	Cc1cccc(C2Nc3ccccc3C(=O)N2CCc2ccccc2)n1 (stereo not given)

assay / compound	1	2	3	4	5	6	7	8
Rango release inh	-2%	3%	-18%	-7%	-5%	16%	-1%	0%
miR-21 reporter	-1%	-13%	x	-5%	-3%	x	-4%	-20%
Rango-impB inh	0.9%	1.7%	-0.5%	2.8%	-1.0%	0.7%	-1.2%	-1.0%
GLA inh pH 4.5	-6	-2	x	7	x	x	-6	-1

9	O=C(N=C1SC2CS(=O)(=O)CC2N1c1ccc(OC(F)(F)F)cc1)C1CC1 (stereo not given)
10	Cc1ccc([C@@H]2CC=C(C(=O)O)[C@H](c3ccc(C(C)(C)C)cc3)N2S(=O)(=O)c2ccc(C)cc2)cc1
11	CC(=O)NCCn1c(SCC(=O)NCc2ccco2)nc2ccccc2c1=O
12	O=[N+]([O-])c1cccc(Oc2ncccc2[N+](=O)[O-])c1
13	CCOc1ccc(N/C=C/C(=O)c2ccc3ccccc3c2)c([N+](=O)[O-])c1
14	O=c1nc2scc(-c3ccccc3)n2c2ccccc12
15	COc1cccc(CN(C)CC(=O)NC(=O)NCc2ccco2)c1
16	COC(=O)c1c(NC(=O)CN2C(=O)NC3(CCC(C(C)(C)C)CC3)C2=O)sc2c1CCCCC2 (stereo not given)

assay / compound	9	10	11	12	13	14	15	16
Rango release inh	2%	19%	19%	-12%	-15%	-6%	21%	-5%
miR-21 reporter	-14%	x	-2%	x	-7%	-6%	-6%	-2%
Rango-impB inh	-1.0%	-1.0%	2.4%	-0.2%	-0.1%	-0.2%	-0.3%	-0.3%
GLA inh pH 4.5	x	x	0	x	7	6	-9	-4

17	Cc1ccc(-c2cc(C(F)(F)F)n3ncc(C(=O)N4CCCCC4c4cccnc4)c3n2)cc1 (stereo not given)
18	CC1CCCC(C)N1C(=O)CSc1nnc(-c2c[nH]c3ccccc23)o1 (stereo not given)
19	COc1ccc(N2CCN(CC(O)COc3cc(C)cc(C)c3)CC2)cc1 (stereo not given)
20	CC(=O)c1ccc(NC(=O)C(C)Sc2nnc(-c3ccncc3)n2C2CC2)cc1 (stereo not given)
21	CSCC(=O)NS(=O)(=O)c1ccc(C)cc1
22	CC1CCCCN1C(=O)c1cccc(NC2=C(Cl)C(=O)N(Cc3ccccc3)C2=O)c1 (stereo not given)
23	Cc1ccnc2nc(C(=O)OCC(=O)c3c[nH]c4ccccc34)nn12
24	COc1ccc(-c2noc(COc3ccc(Cl)c(C)c3)n2)cc1

assay / compound	17	18	19	20	21	22	23	24
Rango release inh	1%	6%	u	-7%	3%	-10%	1%	9%
miR-21 reporter	-3%	-21%	0%	x	-11%	x	-1%	-5%
Rango-impB inh	3.0%	-2.0%	1.4%	-0.9%	1.5%	u	0.2%	-7.4%
GLA inh pH 4.5	5	8	x	x	5	x	2	5

25	CCOc1cc(C=C2C(=O)c3ccccc3C2=O)ccc1OCC(=O)Nc1ccc(C)cc1
26	Cc1ccc(OCCCn2ccnc2)cc1C
27	O=C(CCc1ccccc1)Nc1ccnn1C1CCN(Cc2ccc(OCCO)cc2)CC1
28	CC1(C)CC(NC(=O)c2cc(S(=O)(=O)N3CCCCC3)ccc2Cl)CC(C)(C)N1
29	O=C(Cc1ccccc1)NCc1ccc(-n2cccc2)cc1
30	Cc1ccc(CNC(=O)C2CCCCN2S(=O)(=O)c2ccccc2)cc1 (stereo not given)
31	Cc1ccccc1C(=O)NNC(=O)c1ccc(F)cc1
32	C=CCNC(=O)COc1coc(CN2CCN(C(=O)c3ccco3)CC2)cc1=O

assay / compound	25	26	27	28	29	30	31	32
Rango release inh	0%	1%	2%	-8%	9%	5%	-16%	-3%
miR-21 reporter	-4%	-5%	-2%	-3%	10%	3%	-38%	x
Rango-impB inh	1.0%	1.3%	-4.8%	-0.3%	8.4%	u	0.6%	0.4%
GLA inh pH 4.5	-11	7	x	x	7	x	-2	x

33	COC(=O)c1cc(NS(=O)(=O)c2ccc(F)cc2)ccc1N1CCOCC1
34	Cc1ccc(-n2cc(CN3CCC(CO)(Cc4cccc(C(F)(F)F)c4)CC3)cn2)cc1
35	O=C(CCC(=O)NNC(=O)c1ccccc1[N+](=O)[O-])NCc1ccccc1
36	Cc1ccc(NNC(=O)c2ccc(Cl)cc2)nn1
37	CCOC(=O)c1c(C)n(C)c2ccc(OCC(O)Cn3c(C)nc4ccccc43)cc12 (stereo not given)
38	O=C(CSc1n[nH]c(=O)n1Cc1ccco1)c1ccc(F)cc1
39	Cc1ccc(C(=O)N(C)Cc2ccc(N3CCOCC3)cc2)cc1S(=O)(=O)NCc1ccccc1
40	CCOc1ccccc1CNC(=O)C1CCCN(c2ncnc3c2nc2n3CCCCC2)C1 (stereo not given)

assay / compound	33	34	35	36	37	38	39	40
Rango release inh	-8%	0%	10%	-4%	-2%	9%	-11%	-11%
miR-21 reporter	-1%	-5%	1%	5%	22%	-2%	x	8%
Rango-impB inh	-3.5%	-4.5%	-3.0%	-1.6%	u	-0.3%	5.0%	-3.3%
GLA inh pH 4.5	5	-16	5	2	-2	3	x	x

41	CCOc1ccc(N(CC(=O)NCCc2ccccc2)S(=O)(=O)c2ccccc2)cc1
42	CCCS(=O)(=O)N1CCN=C1SCc1ccc(F)cc1
43	Cc1ccc(C(=O)OC(C)CN2CCN(C)CC2)cc1 (stereo not given)
44	O=C(N/N=C/c1ccc(O)c(O)c1)c1cc(-c2ccccc2)nc2ccccc12
45	O=C(CSc1ccccc1)NC(=O)NCc1ccccc1
46	O=C(CCN1CCN(Cc2ccccc2)CC1)NNC(=O)c1cc2ccccc2o1
47	CCc1nc2c3cnn(-c4cc(Cl)ccc4C)c3ncn2n1
48	O=c1c2ccccc2nnn1CCO

assay / compound	41	42	43	44	45	46	47	48
Rango release inh	6%	-1%	-2%	12%	0%	-2%	11%	0%
miR-21 reporter	-3%	-8%	-13%	-16%	-18%	x	-1%	0%
Rango-impB inh	-3.3%	3.2%	-3.6%	-0.5%	-5.6%	-3.7%	2.1%	3.1%
GLA inh pH 4.5	x	x	5	x	-4	x	7	5

49	CC1CCCN(S(=O)(=O)c2ccc(CN3C(=O)c4cccnc4C3=O)cc2)C1 (stereo not given)
50	CCN(CC(=O)Nc1ccc(NC(C)=O)cc1)C(=O)c1ccccc1Sc1ccccc1C#N
51	COc1cc(/C=c2\s/c(=C(/C#N)C(=O)N3CCCC3)n(-c3ccccc3)c2=O)ccc1O
52	COc1ccccc1NC(=S)Nc1ccc2cn[nH]c2c1
53	Cn1c(SCC(=O)Nc2nccs2)nnc1C1CC1
54	CCOc1ccc(NC(=O)c2cc3c(C)nc4ccccc4c3o2)cc1
55	O=C1NC(c2ccccc2OC(F)F)Oc2ccccc21 (stereo not given)
56	Cc1ccc(S(=O)(=O)N(C)CC(=O)NCCCc2ccccc2)cc1

assay / compound	49	50	51	52	53	54	55	56
Rango release inh	8%	-8%	u	10%	12%	8%	0%	-20%
miR-21 reporter	1%	x	1%	-17%	-3%	-3%	-4%	0%
Rango-impB inh	-5.2%	-3.4%	u	-1.2%	-3.9%	3.2%	-2.4%	-0.8%
GLA inh pH 4.5	x	x	-7	4	x	3	5	x

In the list so far, two have a cyano group.
50	CCN(CC(=O)Nc1ccc(NC(C)=O)cc1)C(=O)c1ccccc1Sc1ccccc1C#N
51	COc1cc(/C=c2\s/c(=C(/C#N)C(=O)N3CCCC3)n(-c3ccccc3)c2=O)ccc1O

assay / compound	50	51
Rango release inh	-8%	u
miR-21 reporter	x	1%
Rango-impB inh	-3.4%	u
GLA inh pH 4.5	x	-7

The list goes on:
57	CCN(CC)S(=O)(=O)c1ccc(C)c(NC(=S)N2CCN(Cc3ccc4c(c3)OCO4)CC2)c1
58	CCOc1cc(C(=O)Nc2ccc(C)cc2O)ccc1OCC(=O)N1CCOCC1
59	COc1cccc(CNC(=O)C2CCN(S(=O)(=O)c3ccc4c(c3)NC(=O)C(C)S4)CC2)c1 (stereo not given)
60	O=C(c1ccco1)N1CCN(C(=O)c2ccc(-c3cccc(C(F)(F)F)c3)o2)CC1
61	COc1cccc(NC(=O)CCN2CCC(C(N)=O)CC2)c1
62	COc1ccccc1C(CNC(=O)c1cccc(S(=O)(=O)Nc2ccc(F)cc2)c1)N(C)C (stereo not given)
63	COc1cc(CO)ccc1OCc1ccc(Cl)nc1
64	O=C1CC(NC(=O)c2ccc(Cl)cc2)C(=O)N1 (stereo not given)

assay / compound	57	58	59	60	61	62	63	64
Rango release inh	1%	8%	0%	13%	2%	0%	-10%	8%
miR-21 reporter	25%	x	15%	x	0%	x	-45%	-1%
Rango-impB inh	-0.4%	u	-2.8%	-0.2%	-0.8%	-2.9%	-3.0%	-0.1%
GLA inh pH 4.5	-11	x	x	x	-2	x	6	x

65	CCOc1ccc(NC(=O)c2cc(C3CC3)nc3c2cnn3C(C)C)cc1OC
66	CN(C)S(=O)(=O)NCC1CCCN(Cc2cc3ccccc3s2)C1 (stereo not given)
67	CC(C)CNC(=O)C(=O)NCc1ccccc1
68	CCOC(=O)C1(C(=O)OCC)CC1c1ccccc1 (stereo not given)
69	O=C(O)Cc1ccc(NC(=O)C2CC=CCC2C(=O)O)cc1 (stereo not given)
70	O=C(CSC1=NCCS1)NC(c1ccccc1)c1ccccc1
71	COc1ccc(NC(=O)N2CCc3ccccc3C2)cc1OC
72	CCCN1/C(=C(\C#N)C2=NS(=O)(=O)c3ccccc32)N(C)c2ccccc21

assay / compound	65	66	67	68	69	70	71	72
Rango release inh	1%	2%	-11%	1%	x	-2%	18%	21%
miR-21 reporter	x	x	-3%	-11%	-2%	-1%	-24%	x
Rango-impB inh	-0.8%	-0.9%	-1.8%	1.3%	x	-0.1%	-0.1%	-0.5%
GLA inh pH 4.5	x	x	-1	7	7	3	x	x

5 entries already listed, arranged by their value in miR-21 reporter, falling.
70	O=C(CSC1=NCCS1)NC(c1ccccc1)c1ccccc1
69	O=C(O)Cc1ccc(NC(=O)C2CC=CCC2C(=O)O)cc1 (stereo not given)
67	CC(C)CNC(=O)C(=O)NCc1ccccc1
68	CCOC(=O)C1(C(=O)OCC)CC1c1ccccc1 (stereo not given)
71	COc1ccc(NC(=O)N2CCc3ccccc3C2)cc1OC

assay / compound	70	69	67	68	71
Rango release inh	-2%	x	-11%	1%	18%
miR-21 reporter	-1%	-2%	-3%	-11%	-24%
Rango-impB inh	-0.1%	x	-1.8%	1.3%	-0.1%
GLA inh pH 4.5	3	7	-1	7	x

Going on with the list:
73	NC(=O)c1nsc(C(=O)N(CC(=O)NC2CCCC2)c2cnc3ccccc3c2)c1N
74	COC(=O)c1ccc(/C=N\NC(=O)c2c(C)nc3ccc(Cl)cn23)cc1
75	CCn1c(=O)c(C(=O)CC#N)c(N)n(Cc2ccccc2)c1=O
76	CCOC(=O)N1CCN(Cc2ccc(O)c3ncccc23)CC1
77	Cc1ccc(NC2=NCCC2)cc1Cl

assay / compound	73	74	75	76	77
Rango release inh	x	21%	-16%	-14%	-8%
miR-21 reporter	-6%	-1%	2%	29%	1%
Rango-impB inh	x	-1.1%	-3.4%	0.3%	-1.2%
GLA inh pH 4.5	3	x	-3	1	-4

Bioassay records (PubChem)
